Screens (PubChem)
NPYLR7 agonist: activates Aedes aegypti NPYLR7 receptor; actives 0.15% (n = 270,000); activation, % at 10 µM; HEK293T NPYLR7/Galpha15, GCaMP6s calcium fluorescence; in the data active = activation above about 40%;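 note: 0% = vehicle and 100% = reference agonist at the receptor; some compounds past the cut are filed as inactive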
NPYLR7 agonist max-min: second read-out of NPYLR7 agonist, no call of its own (marks repeat the call); activation, %; measured here: Max-Min RFU normalised activation; some inactives read as strong as hits;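 span of the calcium signal over five minutes; 0% = vehicle and 100% = native peptide agonist; compound fluorescence can raise it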
* = called active by the depositor; & = joins results of further samples. These rows are one share of the data; the hit share may differ from the screen's.

SMILES	NPYLR7 agonist	NPYLR7 agonist max-min
CC1(Cc2cccc(F)c2)C(=O)Nc2ccc(-c3cccnc3)cc21 (stereo not drawn)	1	2
Cc1c(C(=O)NC2CC2)cnn1-c1ccccc1C(F)(F)F	1	0
O=C(c1ccc(CSc2nc3ccccc3o2)cc1)N1C2CCC1CC(Oc1cccc(C(F)(F)F)c1)C2 (stereo not drawn)	-15	-14
CCOC(=O)C1=C(C)N(C)C(=O)NC1c1ccc2c(c1)OCO2 (stereo not drawn)	0	-8
CCc1[nH]c2ccc(CNc3ncc(F)c(N4CCOCC4)n3)cc2c1C	-1	-3
O=[N+]([O-])c1ccccc1C=CC=Nn1cc(-c2ccccc2)[nH]c1=S	2	2
Cc1cccc(-c2nc(C#N)c(NCc3ccccc3Cl)o2)c1	1	3
COc1ccc2cc(C(=O)NCC(c3cccs3)N3CCOCC3)ccc2c1 (stereo not drawn)	1	0
Cc1ccccc1C(C)NC(=O)Cn1c(-c2cscn2)nc2ccccc21 (stereo not drawn)	-3	-7
COCC(=O)Nc1cc(C(=O)N(C)CC2Cc3ccccc3O2)cc2nc(-c3cccnc3)n(C)c12 (stereo not drawn)	18	7
Cn1cc(I)c(C(=O)O)n1	-2	-2
O=c1cc(COc2ccc(Cl)cc2)nc2ccc(Br)cn12	10	7
COc1cccc(CC(C2CCN(C(=O)[C@H]3C[C@@H]4C=C[C@H]3C4)CC2)N(C)C(=O)CCSC)c1 (stereo partly drawn)	8	-1
Cc1ccccc1-n1ncc(C(C)NC(=O)Cc2ccc(F)cc2Cl)c1C (stereo not drawn)	-1	-2
COc1ccccc1-n1ncc2c(C)nnc(SCC(=O)NC3CCCC3)c21	-11	-18
CC(C#N)c1cccc(C(=O)N2CCOC(COc3cccc(C(F)(F)F)c3)C2)c1 (stereo not drawn)	12	5
c1ccc(C(Cc2nc(-c3cccnc3)no2)c2ccccc2)cc1	0	-1
Cc1ccc(-c2nnc(SCc3ccc(C(=O)NCc4ccncc4)cc3)n2-c2cccc(Cl)c2)cc1	11	6
CCCCSc1nc2c(c(=O)[nH]1)C(c1cccs1)C(C(=O)OC)C(C)=N2 (stereo not drawn)	-4	-6
COc1ncc(CN2CCC(C(O)c3cccs3)CC2)cn1 (stereo not drawn)	5	5
CCC(C)NC(=O)c1ccc(OCCOC)c(Br)c1 (stereo not drawn)	19	13
CC(C)Cc1noc(C2CCCN(Cc3ncc[nH]3)C2)n1 (stereo not drawn)	8	8
COc1ccc(-c2nn(-c3ccccc3)cc2CNCCn2cccn2)c(F)c1	10	-1
CCOC(=O)CSc1nnc2n1CCN2c1ccc(OC)cc1	3	1
Cc1ccc(NC(=O)NC(=O)C(C)Sc2nc(CN3CCOCC3)nc3ccccc23)c(C)c1 (stereo not drawn)	1	12
Cc1[nH]c(=S)[nH]c(=O)c1C	26	21
CC(C)(O)C#Cc1ccc(C(=O)N[C@@H]2c3ccccc3C[C@@H]2O)o1	1	11
FC(F)(F)c1cccc(N2CCN(c3nc(-c4ccc(OCc5ccccc5)cc4)nc4ccccc34)CC2)c1	-1	5
O=S(=O)(O)NC1CCCCC1	-12	1
O=C(Cn1nc(-c2ccc(F)cc2)ccc1=O)Nc1cc(C(F)(F)F)cc(C(F)(F)F)c1	11	5
Cc1ccccc1/C=N\NC(=O)Cn1cnc([N+](=O)[O-])n1	-11	-16
Cc1ccc(CNC(=O)C2CCCN(C3CCN(C(=O)C4CC4)CC3)C2)o1 (stereo not drawn)	4	4
O=C1OCC2(CCN(C(=O)c3ccc(-c4ccccc4Cl)o3)CC2)O1	-4	-8
Cc1cc(=O)[nH]c(-n2nc(C)c(CCC(=O)Nc3ccc4c(c3)OCCO4)c2C)n1	3	2
COc1ccc(NC(=O)CN2CN(c3ccccc3)C3(CCN(C(=O)c4ccccc4OC)CC3)C2=O)cc1	11	10
CCCc1nc(C)cc(N2CC(n3nc(C)cc3C)C2)n1	5	1
O=S(=O)(Cc1ccccc1)N1CCN(Cc2ccccc2)CC1	2	0
O=C(Nc1cc(-n2cccc2)ccc1F)C1CCS(=O)(=O)C1 (stereo not drawn)	8	6
COc1cc(C(=O)OCCCN2CCCN(CCCOC(=O)c3cc(OC)c(OC)c(OC)c3)CC2)cc(OC)c1OC	5&5&7	8&-33&6
COc1ccc(OC)c(N2C3=[N+](CCCS3)CC2(O)c2ccc(Cl)cc2)c1 (stereo not drawn)	6	6
N#Cc1ccc(Sc2n[nH]c(CCC3CCCC3)n2)nc1	7&11	8&6
Cc1cn2nc(NC3CCc4ccccc43)sc2n1 (stereo not drawn)	7	14
CCOc1ccc(C(C2Sc3nc(CC)nn3C2=O)N2CCC3(CC2)OCCO3)cc1 (stereo not drawn)	1	-5
COc1ccc(C(=O)C[n+]2ccc3c(c2)ncn3C)cc1	-11	-13
NC(=O)c1ccc(NC(=O)CS(=O)(=O)c2cn(CC(=O)N3CCOCC3)c3ccccc23)cc1	-3	-8
COc1ccc(-c2nc(CSc3ccccc3F)cs2)cc1OC	1	10
O=C(c1cccc(Cl)c1)N1N=C(C2CCCCC2)CC1(O)C(F)(F)F (stereo not drawn)	0	0
Cc1nccc(-c2cccc(NC(=O)CC3(CC(=O)O)CCCC3)c2)n1	0	-6
CCOc1ccccc1CN1CCCn2cccc2C1c1cc(OC)cc(OC)c1 (stereo not drawn)	0	-2
COc1c[nH]c(CN2CCCC(C(=O)c3ccc(-c4ccccc4)cc3)C2)cc1=O (stereo not drawn)	-7	-8
Next part:
SMILES	NPYLR7 agonist	NPYLR7 agonist max-min
CC1(C)CC(=O)C(N=Nc2cc(S(=O)(=O)N3CCOCC3)ccc2Cl)=C(O)C1	6	5
C=CCN(C(=O)c1ccc(-c2cccc(C(F)(F)F)c2)s1)C1CCCCC1	2	0
Cc1onc(-c2ccccc2Cl)c1C(=O)NCC1Cc2cc(C(C)(C)C)ccc2O1 (stereo not drawn)	-1	-3
COc1cc(OC)nc(C(NC(=O)C2CCN(C/C=C/c3ccccc3)CC2)c2ccc(F)cc2)n1 (stereo not drawn)	6	6
c1csc(-c2nc(SCC3COc4ccccc4O3)n[nH]2)c1 (stereo not drawn)	-1	-1
Cc1cc(NC(=O)COC(=O)C2(c3cccc(Cl)c3)CCC2)no1	-5	-5
Cc1ccc(CN(C)Cc2cn(Cc3ccccc3)nc2-c2ccc3c(c2)OCO3)o1	7&0	2&-3
CCCS(=O)(=O)Nc1ccccc1C(=O)Nc1ccc(Cl)c(Cl)c1	6	2
CCOC(=O)c1nn(-c2ccc(Cl)cc2)c(=O)c2c(NC(=O)CCc3ccccc3)scc12	9	8
Cc1onc(-c2c(F)cccc2Cl)c1C(=O)N1CCC(n2c(=O)[nH]c3ccccc32)CC1	-4	-9
CCCCCCN=C(NC(=O)c1cccc(OC)c1)OC(C)C	-4	2
CCN(CC)C(=S)SCC(=O)N1CCc2ccccc2C1	0	-3
Cn1cc(/C=C/C(=O)Nc2cc(OCC(F)(F)F)cc(OCC(F)(F)F)c2)cn1	11	7
COc1cc(OC)cc(-c2noc(CN)n2)c1	12	5
CCc1nnnn1Cc1noc2c1CCCC2	10	6
O=C(CSc1nc(=O)n(Cc2ccncc2)c2c1CCC2)N1CCCC1	2	1
O=C(Nc1ccc(-c2nc3ccccc3o2)cc1)c1ccc(Cl)c([N+](=O)[O-])c1	-2	6
CCOC(=O)c1c(NC(=O)c2cccc([N+](=O)[O-])c2)sc(C(=O)Nc2ccccc2C)c1C	-6	-1
Cc1cc(C)c(CNC(C)(C)c2noc(CN(C)C)n2)cc1C	1	-1
CN(C)CCN(Cc1ccc(Cl)cc1)C(=O)C1CCC(=O)NC1 (stereo not drawn)	4	2
CCOC(=O)NC(CNCc1ccc(F)cc1F)CC(C)C (stereo not drawn)	1	-14
Cc1ccc(C=C2SC(=S)N(CCC(=O)O)C2=O)o1	13	12
Cc1cc(C(=O)NCCn2ncc3c(N4CCCC4)ncnc32)no1	1	-1
COc1cc2c(cc1OC)C(c1ccc(N)cc1)=NNC(=O)C2	-12	-17
Ic1cccc(CSc2nnc(-c3cc(-c4ccccc4)nc4ccccc34)n2CC2CCCO2)c1 (stereo not drawn)	-8	-13
COc1ccc2c(c1)C1CC(C)(NC(=O)C1S(=O)(=O)c1ccc(C(C)(C)C)cc1)O2 (stereo not drawn)	10	15
CC1c2cccn2CCN1Cc1ccc(C#CC(C)(C)O)s1 (stereo not drawn)	24	10
Cc1nc(NC(=O)CC(C)(C)C)sc1-c1nccn1C	5	5
COc1cc(-c2nc(C(N)=O)c3[nH]c(=O)n(-c4cccc(C)c4)c3n2)cc(Br)c1O	4	10
CCc1ccc(OCCCn2c(C(O)CC)nc3ccccc32)cc1 (stereo not drawn)	2	6
Cc1c(C(=O)NC2CC2)c(C(F)(F)F)nn1C1CCCN(C)C1 (stereo not drawn)	13	9
CCOCCCNC(=O)c1cc(N)ccc1N1CCCCC1	-4	9
Cc1cccc(Cn2cnc3c(nnn3-c3cc(C)cc(C)c3)c2=O)c1	-3	-6
CCOC(=O)c1nccn1Cc1nc(-c2cc(OC)ccc2F)oc1C	-4	-8
CCc1ccc(-c2nn(CC(=O)NCc3ccc(F)cc3)c(=O)c3nc(C)sc23)cc1	2	-1
CN(CCNC1CCN(c2ccc(F)cc2)C1)S(C)(=O)=O (stereo not drawn)	-4	-4
O=C(Cc1ccccc1)N1CCCC(OCc2ccccc2)C1 (stereo not drawn)	-3	3
COc1ccc(Cc2nc(CSc3cccs3)cs2)cc1	12	22
COCCn1c(SCC(=O)Nc2ccc(C)cc2C)nc2c([nH]c3ccccc32)c1=O	0	-1
NCC1Cc2cc(-c3ccccc3OCCn3ccnc3)cc(Cl)c2O1 (stereo not drawn)	8	3
O=C1CSc2ccc(C(=O)OCCN3C(=O)c4ccccc4S3(=O)=O)cc2N1	1	1
CCC(=O)Nc1cccc(OCC(=O)NCCF)c1	7	5
O=C(Oc1coc(CSc2ncccn2)cc1=O)c1cc(Cl)ccc1[N+](=O)[O-]	-15	-13

An excerpt from above in order of length of the SMILES, lowest first:
SMILES	NPYLR7 agonist	NPYLR7 agonist max-min
CCc1nnnn1Cc1noc2c1CCCC2	10	6
COc1cc(OC)cc(-c2noc(CN)n2)c1	12	5
CCC(=O)Nc1cccc(OCC(=O)NCCF)c1	7	5
CCOCCCNC(=O)c1cc(N)ccc1N1CCCCC1	-4	9
CCOC(=O)NC(CNCc1ccc(F)cc1F)CC(C)C (stereo not drawn)	1	-14
Cc1nc(NC(=O)CC(C)(C)C)sc1-c1nccn1C	5	5
Cc1ccc(C=C2SC(=S)N(CCC(=O)O)C2=O)o1	13	12
CCc1ccc(OCCCn2c(C(O)CC)nc3ccccc32)cc1 (stereo not drawn)	2	6
Cc1cc(C)c(CNC(C)(C)c2noc(CN(C)C)n2)cc1C	1	-1
NCC1Cc2cc(-c3ccccc3OCCn3ccnc3)cc(Cl)c2O1 (stereo not drawn)	8	3
O=C(CSc1nc(=O)n(Cc2ccncc2)c2c1CCC2)N1CCCC1	2	1
Cc1cccc(Cn2cnc3c(nnn3-c3cc(C)cc(C)c3)c2=O)c1	-3	-6
O=C1CSc2ccc(C(=O)OCCN3C(=O)c4ccccc4S3(=O)=O)cc2N1	1	1
COCCn1c(SCC(=O)Nc2ccc(C)cc2C)nc2c([nH]c3ccccc32)c1=O	0	-1
CCc1ccc(-c2nn(CC(=O)NCc3ccc(F)cc3)c(=O)c3nc(C)sc23)cc1	2	-1
O=C(Nc1ccc(-c2nc3ccccc3o2)cc1)c1ccc(Cl)c([N+](=O)[O-])c1	-2	6
COc1ccc2c(c1)C1CC(C)(NC(=O)C1S(=O)(=O)c1ccc(C(C)(C)C)cc1)O2 (stereo not drawn)	10	15
COc1cc(-c2nc(C(N)=O)c3[nH]c(=O)n(-c4cccc(C)c4)c3n2)cc(Br)c1O	4	10
CCOC(=O)c1c(NC(=O)c2cccc([N+](=O)[O-])c2)sc(C(=O)Nc2ccccc2C)c1C	-6	-1
